Six1-Eya2 inh: blocks human Six1 binding to Eya2; Q15475+O00167; AlphaScreen GST-Six1/His-Eya2 binding, biochemical; active compounds read low; control for the full effect not named in the record; activity change, % (concentration not given with the values); 360,000 compounds, 0.56% hits; in the data active = activity change below about -65%; inconclusive = about -30% to -65%; inactive = above about -30%; note: % is set by controls: 0 for no effect and ±100 for the full control effect
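AlphaScreen luminescence read after one hour at 37 °C in darkness. Pin-transferred compounds met GST-Six1 and His-Eya2 protein (5X stock 250 nM/500 nM) plus glutathione donor and Ni-chelate acceptor beads (5X, 50 ug/mL).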
TRPML1 inh: inhibitors of human TRPML1 channel; Q9GZU1; TRPML1-inducible cells, Ca2+ dye fluorescence, FDSS; active compounds read low; inhibition of EC80 agonist-evoked calcium signal; activity change, negative = inhibition, % (test concentration not listed); 390,000 compounds, 0.02% hits; AID 624415; in the data active means activity change below about -50%; inconclusive means about -30% to -50%; inactive means above about -30%;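 note: stimulus is agonist 54-4 at its EC80 concentration; % is set by controls: 0 for no effect and ±100 for the full control effect; compound concentration not given in the record; the text of the record puts the active cut at -80%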
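TRPML1-DL cells, Tet-induced overnight (~16 h, 37 °C) at 1,500 cells/well, were loaded with Ca8 no-wash dye plus quencher for 45-90 min at room temperature. Compounds were pinned during FDSS kinetic reading; agonist 54-4 at EC80 (4 uM final) then added.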
CtBP-E1A blk: CtBP/E1A binding inhibition; 340,000 compounds, 0.49% hits; activity change, % (test concentration not listed); AID 651724; AlphaScreen GST-E1A/His-CtBP binding, 1536-well; active compounds read low; control for the full effect not named in the record; in the data active means activity change below about -65%; inconclusive means about -30% to -65%; inactive means above about -30%; note: % is set by controls: 0 for no effect and ±100 for the full control effect
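Homogeneous bead-based format: GST-tagged E1A captured on glutathione donor beads, His-tagged CtBP on nickel acceptor beads; compounds precede bead addition by 2 h at 37 °C.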
D2 PAM: potentiates the human D2 dopamine receptor allosterically. P14416. DiscoveRx D2 beta-arrestin cells, luminescence, 90 min; 100% = 57 uM dopamine signal. potentiation, % (no concentration beside the values). 360,000 compounds, 0.23% hits. AID 624464; active = potentiation of 50% or more; inconclusive = 30% to 50%; inactive = 30% or less;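 note: compound concentration not given in the record; tested on top of an EC20 dose of dopamine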
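PathHunter D2 cells, attached overnight at 37 deg C, received compound in DMSO plus dopamine at EC20 (50 nM final) for 90 min at 37 deg C. Beta-arrestin recruitment was read as luminescence after 1 h with detection reagent at ambient temperature.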
TRPML1 agonist: agonists of human TRPML1 channel; TRPML1-expressing cells, Ca2+ dye fluorescence, FDSS; host cell line not named in the record; reference of the full effect not given here; AID 624414; activation, % (test concentration not listed); 410,000 compounds, 0.12% hits; Q9GZU1; in the data active = activation above about 50%; inconclusive = about 30% to 50%; inactive = below about 30%; note: 0% is about no effect; the text of the record puts the active cut at 80%
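Cells: TRPML1-DL, 1X Tet inducer, ~16 h at 37 degrees C/5% CO2. Dye: ABD Ca8 no-wash + quencher, 45-90 min RT. Read: 10 s baseline, compound add, 110 s agonist phase; 54-4 EC80 (4uM final), 110 s antagonist phase.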
TRPV1 potentiator: enhances activation of the human vanilloid receptor TRPV1; Q8NER1; TRPV1-expressing cells, Fluo-8 calcium influx, capsaicin EC20 potentiation; host cell line not named in the record; control for the full effect not named in the record; potentiation, % at 8.33 µM; 320,000 compounds, 0.02% hits; AID 540277; active means potentiation above 80%; inconclusive means 30% to 80%; inactive means below 30%; note: 0% is about no effect
Target sequence (Q8NER1 whole entry, looked up): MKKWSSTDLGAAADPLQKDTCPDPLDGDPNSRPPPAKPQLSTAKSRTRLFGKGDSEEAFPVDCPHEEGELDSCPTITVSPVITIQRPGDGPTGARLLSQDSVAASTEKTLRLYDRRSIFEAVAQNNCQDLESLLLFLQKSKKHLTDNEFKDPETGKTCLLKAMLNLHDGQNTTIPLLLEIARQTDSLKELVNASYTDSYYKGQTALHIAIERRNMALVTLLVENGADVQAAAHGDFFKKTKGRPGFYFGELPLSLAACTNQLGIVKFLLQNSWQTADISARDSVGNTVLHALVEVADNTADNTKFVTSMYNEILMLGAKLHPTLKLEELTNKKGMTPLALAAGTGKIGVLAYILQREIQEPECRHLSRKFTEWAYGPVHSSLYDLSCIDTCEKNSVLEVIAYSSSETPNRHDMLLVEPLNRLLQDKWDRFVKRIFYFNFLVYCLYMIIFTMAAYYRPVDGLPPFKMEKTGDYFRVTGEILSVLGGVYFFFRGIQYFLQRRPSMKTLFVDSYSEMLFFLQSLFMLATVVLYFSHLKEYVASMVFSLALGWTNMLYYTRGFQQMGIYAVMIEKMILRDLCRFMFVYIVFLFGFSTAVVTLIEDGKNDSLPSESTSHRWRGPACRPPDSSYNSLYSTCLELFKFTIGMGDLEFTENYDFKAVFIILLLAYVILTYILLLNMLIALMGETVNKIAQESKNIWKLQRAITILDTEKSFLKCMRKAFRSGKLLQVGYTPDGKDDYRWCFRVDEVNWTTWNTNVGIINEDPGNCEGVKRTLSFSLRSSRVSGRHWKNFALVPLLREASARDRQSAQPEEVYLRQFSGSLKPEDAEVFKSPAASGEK
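Cells expressing TRPV1 were dye-loaded with Fluo-8 and read kinetically: 10 s baseline, 3 min after compound (agonist portion), then 2 min after EC20 capsaicin (allosteric enhancer portion). Calcium-bound dye fluorescence at 480/520 nm.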
* marks the source's active call; other numbers are inactive results; ? = inconclusive; . = no result given; & = joins results of further samples.

SMILES | Six1-Eya2 inh | TRPML1 inh | CtBP-E1A blk | D2 PAM | TRPML1 agonist | TRPV1 potentiator
Cc1ccc(N(C)/N=C/c2ccc(Cl)cc2Cl)nn1 | 5 | 9 | 12 | 3 | 3.7 | -3
Cc1cc(C)c(C)c(S(=O)(=O)N2CCN(C(=O)C3CSC4(C)CCC(=O)N34)CC2)c1C (stereo not drawn) | 10 | -19 | -3 | -2 | -0.2 | 3
CCCCCCSc1cccc(-c2nc3cc(C)ccn3c2NCc2ccccc2)c1 | 11&38 | 41 | -5&-5 | -14 | 0.9&0.2 | 6
C/C=C(/C)C(=O)Nc1cccc(C2=NOC3(C2)C[C@H](C(N)=O)N(C(=O)Cc2ccc([N+](=O)[O-])cc2)C3)c1 (stereo partly drawn) | 1 | 1 | 4 | -1 | -0.8 | ?
NS(=O)(=O)c1ccc(NC(=O)CSc2nnc(-c3ccc(O)cc3)o2)cc1 | 5 | 30 | -11 | -1 | 1.5 | -2
CC(=O)Nc1cccc(-c2cn3ccc(C)cc3n2)c1 | -6 | 7 | 0 | -1 | 0.5 | 11
CC1=C(C(=O)OCc2ccc(C)cc2)C(c2ccc(O)c([N+](=O)[O-])c2)NC(=O)N1 (stereo not drawn) | -1 | 5 | 0 | -1 | -0.7 | 21
CS(=O)(=O)N1CCN(C(=O)c2cc3ccccc3oc2=O)CC1 | 1 | -16 | 0 | 0 | -0.2 | -13
CN1CCN(c2ccc(C(CC(N)=O)NC(=O)Cc3ccc(Br)cc3)cc2[N+](=O)[O-])CC1 (stereo not drawn) | -8 | -1 | 5 | -5 | -0.2 | -10
COc1ccccc1C(=O)NC1CCSc2ccccc21 (stereo not drawn) | -2 | 1 | -3 | -8 | 1.9 | -16
COC(=O)N[C@@H]1C[C@H]2[C@@H]3CC[C@H]4C[C@@H](OC)CC[C@]4(C)[C@H]3CC[C@]12C | 4 | 13 | -1 | -2 | -0.1 | -10
CC(C)c1ccc(S(=O)(=O)Nc2ccc3c(c2)OCO3)cc1 | 1 | -5 | . | -16 | 0.4 | .
Nn1c(SCC(=O)Nc2ccc(OC(F)F)cc2)nnc(Cc2ccccc2)c1=O | -8 | -4 | 6 | 4 | -0.2 | 4
Cc1ccc(S(=O)(=O)N2CCOCC2)cc1NC(=O)CN1C(=O)CN(C)C1=O | 3 | -13 | -3 | -3 | 0.5 | 4
COCCN(CC(=O)Nc1cccc(C)c1C)C(=O)c1cc(-c2cccs2)nn1-c1ccccc1 | -3 | -20 | . | -7 | -1.6 | 19
Cc1cc(N2CCN(C(=O)c3ccco3)CC2)n2nc(C)c(-c3ccccc3)c2n1 | 0 | 6 | -2 | -8 | 1.4 | -7
CSc1ncc(Cl)c(C(=O)Nc2ccccc2Cl)n1 | -2 | -13 | 0 | -22 | 1.9 | 0
CN(C)S(=O)(=O)c1ccc(Nc2nc(C3CC3)nc3c2nnn3Cc2ccccc2Cl)cc1 | -2 | 3 | 6 | 3 | -0.2 | -35
COc1ccc(C(=O)C[n+]2ccc(N)c(C)c2C)cc1 | 16 | -10 | 0 | -3 | 0.4 | -5
COc1ccc(C(=O)N2CCN(c3cccc(C)c3C)CC2)cc1S(=O)(=O)NC1CC1 | -1 | 10 | -1 | -9 | 0.5 | 11
COc1ccc([N+](=O)[O-])cc1NC(=O)Cc1ccc(C)cc1 | -1 | -2 | 5 | -25 | -0.1 | -10
COc1ccc(NC(=S)N2CCC(c3nc4ccccc4o3)CC2)c(OC)c1 | -1 | 2 | -4 | -8 | 0.1 | 4
COc1ccc(/C=N/Nc2cc(N3CCOCC3)nc(C)n2)c(OC)c1 | 0 | . | . | 20 | . | 5
CCN1C(=O)[C@H]2[C@@H](c3ccc(C)cc3)N3C(=O)N(c4ccc(C)cc4)C(=O)[C@@]3(CC)[C@H]2C1=O | -2 | -3 | 1 | -14 | -0.4 | ?
Cc1ccc(Cl)cc1N1CCN(S(=O)(=O)c2ccc3c(c2)NC(=O)C(C)C(=O)N3)CC1 (stereo not drawn) | -17 | 0 | -10 | -1 | 1.8 | -8
CCN1CCN(c2ccc(S(=O)(=O)N3CCCCC3)cc2NC(=O)CC(NC(C)=O)c2ccccc2)CC1 (stereo not drawn) | 1 | -20 | -20 | 7 | 0.8 | -4
Cc1nc2sc(C(c3cccc(F)c3)N3CCN(C(=O)c4ccco4)CC3)c(O)n2n1 (stereo not drawn) | -1 | 0 | -2 | -2 | 0.1 | -4
O=C(Oc1cccc(C(=S)N2CCCCC2)c1)c1ccccc1 | -1 | 28 | . | -9 | 2.6 | ?
COCCNC(=O)Cc1cn(C)c2ccccc12 | 10 | -12 | 1 | -3 | 0.7 | 1
O=C(NN=C1CCC(=NNC(=O)c2ccccn2)CC1)c1ccccn1 | -67* | 19 | -75* | 3 | -0.8 | -19

One compound at a time, from the list above. Order of screens: Six1-Eya2 inh | TRPML1 inh | CtBP-E1A blk | D2 PAM | TRPML1 agonist | TRPV1 potentiator
CCN1C(=O)[C@H]2[C@@H](c3ccc(C)cc3)N3C(=O)N(c4ccc(C)cc4)C(=O)[C@@]3(CC)[C@H]2C1=O is entered as -2 | -3 | 1 | -14 | -0.4 | ?
Cc1ccc(S(=O)(=O)N2CCOCC2)cc1NC(=O)CN1C(=O)CN(C)C1=O is entered as 3 | -13 | -3 | -3 | 0.5 | 4
O=C(Oc1cccc(C(=S)N2CCCCC2)c1)c1ccccc1 is entered as -1 | 28 | . | -9 | 2.6 | ?
COCCNC(=O)Cc1cn(C)c2ccccc12 is entered as 10 | -12 | 1 | -3 | 0.7 | 1

(more compounds)
SMILES | Six1-Eya2 inh | TRPML1 inh | CtBP-E1A blk | D2 PAM | TRPML1 agonist | TRPV1 potentiator
c1ccc(CCc2nc(-c3ccccn3)no2)cc1 | 4 | -6 | 4 | 6 | 2.0 | 13
CCOC(=O)N1CCN(C(=O)c2ccc(CS(=O)Cc3ccccc3Cl)o2)CC1 (stereo not drawn) | 2 | -12 | 2 | -1 | -0.6 | -4
COC(=O)/C(=C\c1cccnc1)NC(=O)c1ccc(OCc2ccccc2)cc1 | 0 | 1 | -6 | -14 | 0.6 | -20
CCOC(=O)c1cc(-c2ccc3c(c2)OCCO3)n[nH]1 | -9 | -2 | 0 | 7 | 3.8 | 2
Cc1ccc(NC(=O)c2cc3ccccc3o2)nc1 | 9 | 1 | 3 | -8 | 1.7 | 16
COc1ccccc1C(c1nnnn1Cc1ccccc1)N1CCN(C2CCCC2)CC1 (stereo not drawn) | -2 | 13 | -1 | -13 | 0.2 | 7
COc1ccc(-c2noc(CCC(=O)NCc3cccnc3)n2)cc1OC | 20 | 4 | 0 | -3 | 0.1 | 8
CC1CC1C(=O)OCC(=O)N(C)CC(=O)Nc1ccc(F)cc1 (stereo not drawn) | 6 | -9 | . | 1 | 0.2 | .
CN(CCc1ccccc1)C(=O)c1ccc(NC(=O)Cc2ccc(NC(=O)C3CCCN(C(=O)C4CC4)C3)cc2)cc1 (stereo not drawn) | 0 | 3 | 4 | -6 | -0.5 | .
CCCN1CCN(CCCNC(=O)c2ccc3nc(N4CCC(C)CC4)sc3c2)CC1 | -3 | -7 | 0 | 1 | 0.0 | 19

Part of the list above, as tab-separated lines:
smiles	Six1-Eya2 inh	TRPML1 inh	CtBP-E1A blk	D2 PAM	TRPML1 agonist	TRPV1 potentiator
Cc1ccc(S(=O)(=O)N2CCOCC2)cc1NC(=O)CN1C(=O)CN(C)C1=O	3	-13	-3	-3	0.5	4
CCN1CCN(c2ccc(S(=O)(=O)N3CCCCC3)cc2NC(=O)CC(NC(C)=O)c2ccccc2)CC1 (stereo not drawn)	1	-20	-20	7	0.8	-4

As entered above:
Value of c1ccc(CCc2nc(-c3ccccn3)no2)cc1 under TRPV1 potentiator: 13
Value of CCCN1CCN(CCCNC(=O)c2ccc3nc(N4CCC(C)CC4)sc3c2)CC1 under D2 PAM: 1
Value of CCOC(=O)N1CCN(C(=O)c2ccc(CS(=O)Cc3ccccc3Cl)o2)CC1 (stereo not drawn) under TRPV1 potentiator: -4
Value of COc1ccc(-c2noc(CCC(=O)NCc3cccnc3)n2)cc1OC under Six1-Eya2 inh: 20
Value of CN(CCc1ccccc1)C(=O)c1ccc(NC(=O)Cc2ccc(NC(=O)C3CCCN(C(=O)C4CC4)C3)cc2)cc1 (stereo not drawn) under CtBP-E1A blk: 4
Value of Cc1ccc(NC(=O)c2cc3ccccc3o2)nc1 under D2 PAM: -8
Value of CCOC(=O)c1cc(-c2ccc3c(c2)OCCO3)n[nH]1 under CtBP-E1A blk: 0

(listing goes on)
SMILES | Six1-Eya2 inh | TRPML1 inh | CtBP-E1A blk | D2 PAM | TRPML1 agonist | TRPV1 potentiator
CCOC(=O)C1CCCN(C(=O)c2ccc3nc(-c4cccc(OC)c4)oc3c2)C1 (stereo not drawn) | -1 | -13 | -6 | -11 | 0.1 | -17
CS(=O)(=O)Nc1ccc(-c2cncc3nccn23)cc1 | 4 | . | 3 | -9 | -0.8 | .
O=S1(=O)N[C@H](Cc2ccccc2)COc2cc(N3CCC[C@@H]3CO)ccc21 | 6 | . | -20 | . | -0.3 | .
Cc1c(C(=O)C(=O)N2c3ccccc3CC2C)c2ccccc2n1C (stereo not drawn) | -2 | -23 | -8 | 1 | 1.0 | -8
S=C1NC(c2ccccc2)=CC(c2ccccc2)N1 (stereo not drawn) | 2 | 23 | 0 | -3 | 2.3 | -16
COC(=O)c1sc2cc([N+](=O)[O-])cc(SCC(C)C)c2c1N | 7 | -2 | -7 | -8 | 14 | 4
Cc1c(C(=O)O)sc2nc3n(c(=O)c12)CCC(C)CC3 (stereo not drawn) | 5 | 25 | 14 | 5 | 0.2 | 13
CN(c1cccc(NC(=O)c2ccc(CN3CCc4ccccc4C3)cc2)c1)S(C)(=O)=O | -18 | 6 | -3 | 0 | 0.3 | 29
O=C(c1ccco1)N1CCN(C(=O)c2cc(-c3ccc(F)cc3)no2)CC1 | 3 | -9 | 0 | -6 | -0.7 | 18
Cc1ccc(-c2nn(Cc3ccccc3)cc2/C=C/C(=O)O)cc1C | -5 | -7 | 5 | 10 | -0.8 | 10
COc1ccc(C2C(C(=O)Nc3cc(OC)c(OC)c(OC)c3)c3ccccc3C(=O)N2C)cc1OC (stereo not drawn) | -21 | 23 | 0 | -3 | -0.5 | 8
COc1ccc(C(C)=O)cc1CN1C(=O)NC2(CCCCCC2)C1=O | 16 | -4 | 0 | 11 | -0.3 | 0
CN(N)c1nc(-c2ccccc2)nnc1C(F)(F)F | 0 | 47 | -9 | -21 | 1.3 | 14
Cc1ccc(C)c(NC(=O)C(C)N2C(=O)c3ccccc3C2=O)c1 (stereo not drawn) | 0 | 24 | -3 | -5 | 0.6 | 5
CCCC1(c2ccccc2)NC(=O)N(CC(=O)N2CC(=O)Nc3ccccc32)C1=O (stereo not drawn) | 26 | -6 | . | -3 | -0.6 | -4
Cc1cccc(N2C(=O)C3CC3C2=O)c1 (stereo not drawn) | 20 | -7 | 1 | -13 | -0.1 | 8

Screening results deposited in PubChem by National Center for Advancing Translational Sciences (NCATS).
